# Cruzain noTriton – cruzain (T. cruzi) inhibition without detergent; P25779; purified cruzain, Z-FR-AMC fluorescence, no detergent; Potency, µM, without a hit: max response, negative = inhibition, most hits filed as inhibitors; 200,000 tested, 2.3% active;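 note: plate controls were enzyme without inhibitor for no effect and buffer without enzyme for full effect; nearly all actives have a fitted effect of over 40% in size; top concentration of the series not given in the record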
# Target sequence (P25779 123-467 limits assumed): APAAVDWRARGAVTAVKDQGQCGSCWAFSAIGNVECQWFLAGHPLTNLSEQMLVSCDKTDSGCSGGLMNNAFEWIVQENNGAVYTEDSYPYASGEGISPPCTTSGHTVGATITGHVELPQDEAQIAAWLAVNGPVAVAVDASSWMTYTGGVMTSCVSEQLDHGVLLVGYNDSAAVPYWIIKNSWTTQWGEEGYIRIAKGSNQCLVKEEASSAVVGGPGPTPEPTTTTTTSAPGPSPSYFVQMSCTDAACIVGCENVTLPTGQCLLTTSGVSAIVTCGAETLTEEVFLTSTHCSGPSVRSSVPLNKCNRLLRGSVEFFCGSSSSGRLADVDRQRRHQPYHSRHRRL
#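 Purified cruzain at 1.5 nM, pre-incubated 15 min with compound at room temperature in 100 mM sodium acetate pH 5.5, 5 mM DTT, 0.00005% Triton X-100. Reaction started with 2 uM Z-FR-AMC; AMC fluorescence increase over 60 s gives rate.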
# NS1 inh – inhibitors of influenza NS1 protein function | S. cerevisiae slowed by influenza A NS1, growth recovery by OD600 | Potency, µM (top dose mostly 46.1 µM), without a hit: top-dose activity, positive = more growth | 270,000 tested, 0.4% active | AID 2326; active means well fitted rising curve with a large enough effect; inconclusive means small, poorly fitted or top-dose-only effect; inactive means no such curve, though single readings can be large or run the other way; note: nearly all actives have a fitted effect of over 50% in size
#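 In this qHTS, NS1 from influenza A is expressed in budding yeast, where it slows growth. Cells are switched from glucose to 2% galactose medium (pH 6.0, -URA), treated with compound, and growth recovery is read at OD600.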
# SARS PLpro yeast – SARS-CoV PLP inhibition in yeast; S. cerevisiae expressing SARS-CoV PLpro, growth rescue; control for the full effect not named in the record; Potency, µM (top dose mostly 32.9 µM), for the others: at the top dose activity, positive = growth rescue; 330,000 tested, 0.19% active; AID 485353; active means well fitted rising curve with a large enough effect; inconclusive means small, poorly fitted or top-dose-only effect; inactive means no such curve, though single readings can be large or run the other way; note: 0% is about no effect; nearly all actives have a fitted effect of over 55% in size; growth read by luminescence after 48 h
# StopGo reporter – FMDV 2A StopGo reporter, luciferase signal; human cells with a luciferase reporter of 2A StopGo recoding; control for the full effect not named in the record; Potency, µM (series often up to 57.9 µM), without a hit: at the highest dose signal change, negative = less light; 410,000 tested, 1.2% active; AID 1159524; active = well fitted falling curve with a large enough effect; inconclusive = small, poorly fitted or top-dose-only effect; inactive = no such curve, though single readings can be large or run the other way; tested in HEK293T cells; note: % is set by controls: 0 for no effect and ±100 for the full control effect; nearly all actives have a fitted effect of over 45% in size; luciferase light after 4 h
# Marburg entry inh – Marburg virus entry inhibition; 300,000 tested, 1.8% active; Potency, µM (series often up to 37.8 µM), without a hit: top-dose activity change, negative = inhibition, most hits filed as inhibitors; Marburg virus pseudotyped entry inhibition, cell reporter; control for the full effect not named in the record; about a third of the inactives were read at about 46 µM; active = well fitted inhibition curve with a large enough effect; inconclusive = small, poorly fitted or top-dose-only effect, or effect the other way; inactive = flat fitted curve, though single readings scatter; tested in HEK293 cells; about a fifth of its hits are not listed in these tables; note: % is set by controls: 0 for no effect and ±100 for the full control effect; luciferase read-out
# Cruzain Triton – blocks cruzain activity in presence of Triton detergent; P25779; purified cruzain, Z-FR-AMC fluorescence, 0.01% Triton; Potency, µM, without a hit: max response, negative = inhibition, actives largely listed as inhibitors; 200,000 tested, 0.43% active;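 note: plate controls were neutral wells for no effect and buffer without enzyme for full effect; nearly all actives have a fitted effect of over 40% in size; top concentration of the series not given in the record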
#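 Detergent-containing arm of a paired screen for aggregation-based inhibition: 0.01% Triton X-100 present. Cruzain at 1.5 nM cleaved 2 uM Z-FR-AMC at pH 5.5 with 5 mM DTT; AMC fluorescence gain over 60 s measured activity.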
# RE007 growth inh – less growth of the S. pombe RE007 Vpr strain; 360,000 tested, 0.21% active; S. pombe RE007 Vpr strain, BacTiter-Glo ATP luminescence, 24 h; control for the full effect not named in the record; Potency, µM (titrated, usually from 92.2 µM), for inactives: at the top dose activity change, negative = less growth; active = well fitted falling curve with a large enough effect; inconclusive = small, poorly fitted or top-dose-only effect; inactive = no such curve, though single readings can be large or run the other way;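 note: % is set by controls: 0 for no effect and ±100 for the full control effect; nearly all actives have a fitted effect of over 50% in size; the assay follows cell death caused by Vpr and the record does not say whether a fall means rescue or toxicity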
#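 Fission yeast RE007 carrying one integrated HIV-1 vpr copy, seeded at OD 0.01 in PMG+AL medium with 23 nL pinned compound. Grown 24 h at 30 degrees; viability read by BacTiter-Glo luminescence after 5 min.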
# Lassa entry inh – inhibitors of Lassa virus binding or cell entry; Lassa virus pseudotype entry inhibition, cell reporter; control for the full effect not named in the record; Potency, µM (highest dose often 37.9 µM), for inactives: at the highest dose activity change, negative = inhibition, hits mostly inhibitors; 300,000 tested, 1.2% active; AID 540256; active means well fitted inhibition curve with a large enough effect; inconclusive means small, poorly fitted or top-dose-only effect, or effect the other way; inactive means flat fitted curve, though single readings scatter; tested in HEK293 cells; note: % is set by controls: 0 for no effect and ±100 for the full control effect; nearly all actives have a fitted effect of over 50% in size; luciferase read-out
# * marks the source's active call; other numbers are inactive results; ? = inconclusive; · = not tested or not shown; & = joins results of further samples; [ ] = remark or other dose. Unless noted, calls come from the whole dose curve; as a rule, active = well fitted curve in the direction sought with a large enough effect; inconclusive = small, poorly fitted or top-dose-only effect, or another doubt; inactive = no such curve, though single readings can be large; an effect the other way counts as inactive or inconclusive. Potency is the fitted concentration of half-maximal effect.
SMILES,Cruzain noTriton,NS1 inh,SARS PLpro yeast,StopGo reporter,Marburg entry inh,Cruzain Triton,RE007 growth inh,Lassa entry inh
CCOC(=O)CSc1nc2cc3c(cc2cc1C#N)OCO3,-23%,?,4%,71%[activator],-3%,-0.5%,-5%,?
Cc1ccc(C)c(NS(=O)(=O)c2ccc3c(c2)n(C)c(=O)n3C)c1,-3%,·,·,44%[activator],·,-0.6%,·,23%[46.1 µM]
Clc1ccccc1OCCn1cnc2ccccc21,5%,-97%,-10%,39%,5%,-3.2%,-8%,34%[14.3 µM]
O=C(CCCn1c(=O)c2cccn2c2cccnc21)Nc1ccccc1C(F)(F)F,-9%,·,·,-4%,·,-0.2%,·,4%[46.1 µM]
CCCCc1cc(=O)oc2cc(OCC(=O)Nc3cccnc3)c(Cl)cc12,·,18%,7%,?,·,·,36%,·
CCOCCCNC(=S)NCCNc1nc2ccc(C)cc2cc1C#N,4%,0%,-3%,17%,0%[46.1 µM],-3.3%,-19%,-3%
O=C(COC(=O)c1ccc([N+](=O)[O-])o1)NC1CCCC1,·,·,-40%,-16%,2%,·,16%,3%
COc1ccc(NC2CCCN(C(=O)CCc3scnc3C)C2)cc1 (stereo not drawn),·,10%,-14%,-15%,·,·,-12%,0%
CCOC(=O)c1ccc(NC(=O)CSc2nnc(COc3ccccc3)n2C)cc1,8%,0%,0%,-7%,?,6.4%,6%,-3%
COc1ccc(C(=O)N2CCC(C(=O)Nc3ccccc3Cl)CC2)cc1,2%,·,·,-15%,10%[46.1 µM],1.8%,·,17%[46.1 µM]
O=C(/C=C/c1ccc2ccccc2n1)N1CCN(c2ccccc2)CC1,·,·,-6%,-16%,?,·,0%,-6%[46.1 µM]
CCN1CCN(S(=O)(=O)c2c(C)[nH]c(C)c2C(=O)N2CCCCC2)CC1,·,9%,5%,-17%,29%[46.1 µM],·,-7%,24%[46.1 µM]
CC(C)(C)c1ccc(-c2cnco2)cc1,·,5%,-1%,3%,9%[46.1 µM],·,3%,9%[46.1 µM]
O=C(Nc1ccc(Br)cc1)c1ccccc1Br,·,-26%,0%,40%[activator],·,·,?,·
COc1ccc(-c2nc3ccccc3o2)cc1NC(=O)c1cc([N+](=O)[O-])ccc1N1CCOCC1,4%,·,·,7%,0%[46.1 µM],2.0%,·,18%[46.1 µM]
O=C(CSc1nnc2scc(-c3ccccc3)n12)Nc1ccc2c(c1)OCCO2,-7%,-44%,-3%,9%,7%,4.5%,17%,-1%
Cc1nnc2n(Cc3ccccc3)c(=O)c3c4c(sc3n12)COC(C)(C)C4,7%,-2%,2%,-5%,0%,-0.3%,-6%,19%
COc1cccc(CN2C(=O)c3cccc(N)c3C2=O)c1,-6%,-39%,-7%,-13%,10%,-4.3%,5%,-7%
Cc1ccc2[nH]c(=O)c(CN(CCCN(C)C)C(=O)Nc3ccc(Cl)cc3)cc2c1,2%,-7%,-3%,-14%,?,-4.4%,-12%,?
Nn1c(SCC(=O)NNC(=O)c2ccccc2)nnc1-c1ccccc1F,·,·,6%,-6%,1%[46.1 µM],·,6%,11%
CCCCC(=O)Nc1ccc(Br)cn1,-8%,-4%,-1%[6.58 µM],32%[activator],14%,1.6%,1%,21%
O=C1CN(C(=O)c2cc3ccccc3oc2=O)C(c2ccc(F)cc2)c2cc(Br)ccc2N1 (stereo not drawn),?,30%,-2%,3%,-9%,-6.3%,3%,?
Cc1ccc(CNC(=O)C2CCC(=O)N2Cc2ccccc2Cl)cc1 (stereo not drawn),·,-1%,-2%,-3%,·,·,-5%,·
CCC(=O)N1c2ccccc2CC1C(=O)NCCN1CCN(c2cc(Cl)ccc2C)CC1 (stereo not drawn),6%,·,·,?,·,1.0%,·,-2%[46.1 µM]
NC(=O)C1CCN(C(=O)c2cc3c(s2)CCCCC3)CC1,·,·,4%,47%[activator],2%,·,-5%,0%
CC(C)c1ccccc1NC(=O)Cn1c(/C=C/c2ccccc2)nc2ccccc21,·,-6%,0%,24%,14%[46.1 µM],·,12%,13%
COc1ccc(/C=N/N2CCN(Cc3ccccc3)CC2)cc1,·,-5%,7%,4%,·,·,3%,·
COc1ccc(/C=C2\Oc3cc(OCC(=O)N4CCC[C@H]4C(=O)O)ccc3C2=O)c(OC)c1OC,·,19%,-2%,-3%,·,·,-12%,·
Cc1cc(C(=O)CS(=O)(=O)c2ccc(F)cc2)cc(C)c1O,·,0%,1%,40%[activator],?,·,43%,25%
O=C(CCc1nnc2n(Cc3ccc(Cl)cc3)c(=O)c3ccccc3n12)N1CCN(c2ccccn2)CC1,·,-5%,13%,?,-10%[46.1 µM],·,10%,-1%[46.1 µM]
COC(=O)c1ccccc1S(=O)(=O)N1CCC(C(=O)N(C)CCOc2ccccc2)CC1,·,·,5%,?,12%[46.1 µM],·,1%,5%
CCOC(=O)C1C(=O)Nc2nc3ccccc3n2C1C(C)C (stereo not drawn),-3%,-2%,2%,-3%,-14%,5.1%,8%,27%
CC(=O)OC(C(=O)NC1CCCCC1)c1ccccc1F (stereo not drawn),·,-3%,1%,18%,?,·,14%,25%[46.1 µM]
CCOC(=O)c1cnn(-c2ccccc2)c1-n1cccc1C(=O)C(=O)N(CC)CC,·,0%,0%,0%,13%,·,2%,2%
CC(C)(CNC(=O)c1cccc(NS(=O)(=O)c2ccc(Br)cc2)c1)N1CCOCC1,·,3%,1%,-15%,-11%,·,-2%,0%
Cc1ccc(N2C(=O)CS/C2=C(\C(Cl)=C(Cl)Cl)[N+](=O)[O-])cc1,-24%,?,3%,·,-10%,-15%,-14%,11%
COc1ccc(C)c2sc(N(CCN(C)C)C(=O)c3cccc(N4C(=O)CCC4=O)c3)nc12,·,·,4%,-5%,-13%,·,7%,-1%
Cc1csc(NC(=O)C2CC(=O)N(Cc3ccco3)C2)n1 (stereo not drawn),·,13%,2%,12%,3%,·,-3%,14%
O=C(Nc1ccc(Br)cc1F)c1ncoc1-c1ccco1,-5%,·,·,-22%,·,-0.2%,·,4%[46.1 µM]
O=C(NCCS(=O)(=O)NCC1CCCO1)c1ccccc1 (stereo not drawn),·,·,3%,-9%,23%[46.1 µM],·,-18%,2%
O=[N+]([O-])c1ccc(Oc2ccc(-c3nnco3)cc2)c(Cl)c1,·,8%,-2%,-14%,?,·,-1%,-31%[46.1 µM]
COCCNCCOc1ccc(C)cc1[N+](=O)[O-],·,·,5%,-8%,-13%[46.1 µM],·,3%,0%[46.1 µM]
Cc1nnc2ccc(-c3ccc(NS(=O)(=O)c4ccccc4F)cc3)nn12,·,·,5%,0%,3%[46.1 µM],·,-6%,-21%
O=C(COC(=O)Cn1[nH]c(=O)c2ccccc2c1=O)Nc1ccc2c(c1)OCO2,-11%,-7%,5%,10%,9%[46.1 µM],-3.3%,-7%,2%
Cc1cccc(NS(=O)(=O)c2ccc(Br)s2)n1,4%,-1%,-11%,123%[activator],2%,-0.4%,12%,?
O=C(NC(=S)Nc1ccccc1C(=O)O)c1ccc(-c2ccc(Br)cc2)o1,·,-1%,2%,-29%,·,·,-20%,·
Fc1ccc2nncc(SCc3ccccc3Cl)c2c1,·,·,·,58%[activator],3%[46.1 µM],·,12%,16%[46.1 µM]
CCOC(=O)C1(CCOc2ccccc2)CCN(Cc2ccc(C)o2)CC1,·,6%,1%,-15%,11%[46.1 µM],·,-11%,-5%
CC(C)CN1CCN(Cc2cnc(N3CCOCC3)s2)CC1CCO (stereo not drawn),·,1%,0%,3%,?,·,-9%,?
COc1cc(NC(=S)Nc2ccc3c(c2)OCCO3)cc(OC)c1OC,·,6%,1%,23%,4%,·,11%,?

# Next records follow.
SMILES,Cruzain noTriton,NS1 inh,SARS PLpro yeast,StopGo reporter,Marburg entry inh,Cruzain Triton,RE007 growth inh,Lassa entry inh
COc1nnnc2c1sc1nc(N3CCOCC3)c3c(c12)CC(C)(C)OC3,10%,8%,2%,·,·,3.7%,·,·
Cc1ccc2c(c1)N(C(C)C(=O)N1CCC3(CC1)OCCO3)C(=O)CO2 (stereo not drawn),·,6%,1%,-2%,16%[46.1 µM],·,0%,-5%[46.1 µM]
COC(=O)[C@@H]1[C@@H](C(=O)OC)C2(c3ccccc3-c3ccccc32)N(c2ccc(Cl)cc2)N1C#N,-26%,17%,-20%,3.5µM*,10µM*,-8.1%,5%,?
Cc1cccc(NC(=O)CSc2nc(=O)n(Cc3ccccn3)c3c2CCC3)c1C,-13%,·,·,0%,·,-0.8%,·,-18%[46.1 µM]
CCCCn1c(O)c(C(CC)=NCc2ccco2)c(=O)[nH]c1=O,4%,-6%,-10%,-25%,-1%,2.2%,-1%,?
O=C(N/N=C/C1CC=CCC1)c1ccccc1O (stereo not drawn),7%,-3%,-4%,12%,-4%,1.4%,-17%,11%
CN1CCCC(OC(=O)COc2ccc(Br)cc2)C1 (stereo not drawn),10%,-1%,2%,-3%,1%,-1.2%,6%,-4%
CCOC(=O)CSc1nnc(CNC(=O)c2cc(OCC)c(OCC)c(OCC)c2)n1C,23%,7%,-15%,21%,3%,2.5%,-5%,?
O=[N+]([O-])c1ccccc1CSc1ccccn1,·,6%,0%,14%,2%[46.1 µM],·,?,8%[46.1 µM]
O=C1C=C(O)C(n2cncn2)C(c2cc(F)ccc2F)C1 (stereo not drawn),·,11%,0%,7%,21%[46.1 µM],·,21%,-6%
O=C(NCCN1CCOCC1)c1ccc(Cl)nc1Cl,·,8%,1%,20%,·,·,-5%,·
Cc1ccc(N2C(=O)CCC2(C#N)c2ccccc2)cc1 (stereo not drawn),·,-8%,2%,-2%,·,·,11%,·
CC(C)C(NC(=S)NCc1ccccc1)C(=O)O (stereo not drawn),-2%,5%,0%,12%,2%,1.9%,-4%,4%
CCOc1ccc(-n2c(=O)c3c4c(sc3n(CC(=O)NCCCOC)c2=O)CCCCC4)cc1,6%,·,-1%,-6%&18%,?,4.6%,4%,?

# Compound activity from PubChem BioAssay.
